Sfp inh = qHTS Assay for Inhibitors of Bacillus subtilis Sfp phosphopantetheinyl transferase (PPTase); Biochemical Sfp PPTase activity, qHTS; AID 1490, 2009; 310,000 compounds, 3.5% hits; 4'-phosphopantetheinyl transferase ffp (Bacillus subtilis), Q9F4F7; Potency, µM, for inactives: max response, negative = inhibition, most hits filed as inhibitors; active means well fitted inhibition curve with a large enough effect; inconclusive means small, poorly fitted or top-dose-only effect, or another doubt; inactive means no such curve, though single readings can be large or run the other way;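 further: the enzyme is Sfp with the accession as filed and its product quenches rhodamine fluorescence; potency means the concentration at half of the fitted maximal effect; 0% = enzyme reaction without inhibitor and -100% = no enzyme wells; top concentration of the series not given in the record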
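Step 1, compound plus 15 nM Sfp-PPTase, 15 min, room temperature. Step 2, add rhodamine-CoA (5 uM) and BHQ-2-YbbR (12.5 uM). Step 3, read 525/598 nm fluorescence at 0 and 30 min.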
Menin-MLL FL inh = qHTS Assay for Inhibitors Targeting the Menin-MLL Interaction in MLL Related Leukemias: Competition With Fluorescein Labeled MLL-derived Peptide. Fluorescence polarization, fluorescein-MLL peptide displacement from menin. FP activity change, % at 61.4 µM. 290,000 tested, under 10 active. AID 1766, 2009; inconclusive = falling polarisation curve, or a change in total fluorescence; inactive = total fluorescence flat and polarisation flat or rising; no compound was filed as active; the % refers to the polarisation; negative = inhibition;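 further: % of control where 0% means no effect; inhibitors lower the polarisation; unlabelled MLL peptide was the positive control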
Active calls of the source: *; ? = inconclusive; & = joins results of further samples; ! = not active in a repeat; [ ] = dose if it differs, or a comment. Some of the compounds tested, so the mix of outcomes need not match the whole.

Structure	Sfp inh	Menin-MLL FL inh
COC(=O)CN=C1OC(=O)N2C(=O)C3=C4C(C[C@H]5C(=O)N(c6ccccc6)C(=O)[C@H]5[C@H]4[C@@]12Cc1ccccc1)[C@H]1C(=O)N(c2ccccc2)C(=O)[C@H]1[C@H]3C (stereo partly specified)	24.8%	-0.3
CCN1C(=O)[C@H]2[C@H]3[C@H](O)[C@H](O)C/C(=N/O[C@@H](C)CN4CCCCc5nc(C)c(C)cc54)[C@@H]3CC[C@@H]2C1=O	10.0%	0.5[11.7 µM]
O=C1[C@H]2[C@H]3[C@H](O)[C@H](O)C/C(=N/OC[C@@H](O)COCc4ccco4)[C@@H]3CC[C@@H]2C(=O)N1Cc1ccccc1	16.6%	1.3[11.7 µM]
Cc1nc2c(OCc3ccccc3)cccn2c1CC#N	7.6%	?
CC(=O)OCC1OC(C#Cc2ccccc2)C=CC1O (stereo unspecified)	3.5%	0.7[11.7 µM]
C(=C1/CCCC2=C1Nc1ncnn1C2c1ccccc1)/c1ccccc1 (stereo unspecified)	50.1µM*	1.3
COc1cc(/C=C/C(=O)c2cccs2)cc(OC)c1OC	?	?
C=CCC(O)(C#Cc1ccccc1)c1ccccc1 (stereo unspecified)	-24.0%	0.6
CCN(CC)CCCN1C(=O)C(=O)/C(=C(/O)c2ccc3c(c2)OCCO3)C1c1ccc(C)o1 (stereo unspecified)	2.8%	3.8
COc1cc2oc(=O)cc(-c3cccc(-c4ccc(C(C)=O)cc4)c3)c2c(OC)c1OC	-2.3%	7.1
C[C@H]1/C=C\CC(=O)OC[C@H](C)C(=O)N2CCC[C@@H]2C(=O)OC1	13.2%	1.2[11.7 µM]
CCCC[C@@H]1C[C@H]1C(NC(=O)c1ccccc1)c1ccc(Cl)cc1 (stereo partly specified)	19.2%	-2.3
Cc1ccc(S(=O)(=O)N2CCC(=O)N([C@H](COCc3cccc(C)c3)Cc3ccccc3)CC2)cc1	4.7%	-2.6
CC1(OC(=O)c2ccco2)C(=O)C=C2C=C(c3ccc(C#N)cc3)OC=C2C1=O (stereo unspecified)	5.2%	5.3
CC(=O)[C@@]1(O)[C@H](O)CC2C3CCC4CC(O)CC[C@]4(C)C3CC[C@@]21C (stereo partly specified)	?	-3.2
CC(=O)N[C@@H](CSC/C=C(\C)CCC=C(C)C)C(=O)O	44.7µM*!	-3.3
NC(=NC1C2CC3CC(C2)CC1C3)Nc1ccc(I)cc1 (stereo unspecified)	28.5%&-15.4%&-6.0%	10.4
CCN1C(C)=C(C(=O)OC(C)C)C(c2ccccc2Cl)C(C(=O)O)=C1C(=O)O (stereo unspecified)	25.6%	0.2
COC(=O)NC(/C(C(=O)OC)=C(\C)NCc1ccccc1)c1ccc(F)cc1 (stereo unspecified)	-13.1%	6.1[11.7 µM]
CCC1NC(=O)C(NC(=O)c2ncccc2O)C(C)OC(=O)C(c2ccccc2)NC(=O)C2CC(=O)CCN2C(=O)C(Cc2ccccc2)N(C)C(=O)C2CCCN2C1=O (stereo unspecified)	0.3%	3.0

Structure	Sfp inh	Menin-MLL FL inh
COC(=O)C1(CC(C)C)C=C2C(=C(C)C(=O)C2C)CN1 (stereo unspecified)	1.1%	?
CC(C)=CCC/C(C)=C/CO/N=C1/C[C@@H](O)[C@@H](O)[C@@H]2[C@@H]3C(=O)N(C4CCCCC4)C(=O)[C@H]3CC[C@H]12	-6.3%	3.3[11.7 µM]
OCC(CO)NC1C[C@](O)(CO)[C@@H](O)[C@H](O)[C@H]1O (stereo partly specified)	7.8%	-0.9
CC(=O)OC1CC[C@@]2(C)C(CC[C@@]3(C)C2CC=C2C4CC(C)(C)CC[C@]4(C(=O)O)CC[C@@]23C)C1(C)C (stereo partly specified)	-0.7%	0.5
O=C(NCc1ccco1)O[C@@H]1C(=O)c2cc(Br)ccc2O[C@H]1c1ccc2c(c1)OCO2	-23.2%	26.8
CC(=O)OC[C@H]1O[C@@H](O/N=C(\C)CCN2CCc3nc(-c4ccccc4)c(-c4ccccc4)cc3C2)[C@H](OC(C)=O)[C@@H](OC(C)=O)[C@H]1OC(C)=O	18.0%	4.2[11.7 µM]
COC(=O)c1ccc(C(NC(=O)OCc2ccccc2)/C(I)=C/[C@@H](C)C(=O)Nc2ccccc2)cc1 (stereo partly specified)	23.2%	-3.6
Cc1cccc(C)c1Nc1oc(-c2ccccc2)nc1-c1ccccc1	-28.0%	-0.5
COC(=O)NC(c1cccc(C)c1)[C@]1(C(C)=O)CCCC1=O (stereo partly specified)	28.7%	-1.8[11.7 µM]
CSCC[C@@H]1NC(=O)C/C=C\[C@@H](C)COC(=O)[C@@H](C)COC1=O	18.3%	-0.6[11.7 µM]
CC(C)c1cc2c(cc1S(=O)(=O)O)[C@@]1(C)CCC[C@@](C)(C(=O)O)[C@@H]1CC2	15.6%	4.6
CC(=O)OC[C@@H]1O[C@H](C/C=N\O[C@@H](C)CN2CCCCc3nc(C)c(C)cc32)C=C[C@@H]1OC(C)=O	23.3%	-1.7[11.7 µM]
CCCC[C@@H]1C[C@H]1C(NC(=O)c1cccs1)c1ccccc1C(F)(F)F (stereo partly specified)	19.7%	0.4
S=C(S)O[C@@H]1C[C@@H]2C[C@H]1[C@@H]1CCC[C@H]21	11.9%	?
COc1ccc2nc3c(c([Si](C)(C)C(C)(C)C)c2c1)Cn1c-3cccc1=O	-22.5%	0.9
COC(=O)[C@@]1(Cc2ccccc2-c2ccco2)C=C[C@H](C)[C@@H](c2ccccc2)N1C(=O)C(F)(F)F	?	1.8
CCCCC/C=C\C/C=C\CCCCCCCCCC(=O)NC(C)C(=O)O (stereo unspecified)	12.7%	-2.0
CCCNC(=O)OC[C@@H]1O[C@H](CCO/N=C(\C)CCN2CCCc3nc(C)c(C)cc32)C=C[C@@H]1Oc1ccc(OC)cc1	4.1%	6.1[11.7 µM]
COC(=O)c1ccc(C(NC(=O)OCc2ccccc2)/C(=C/[C@@H](C)C(=O)Nc2ccccc2)c2cccnc2)cc1 (stereo partly specified)	25.5%	0.9
CO[C@H]1[C@H](O[C@H]2O[C@@H](C)[C@@H](O[C@@H]3C[C@](C)(O)[C@H](OC(=O)CC(C)C)[C@H](C)O3)[C@@H](N(C)C)[C@@H]2O)[C@@H](CC=O)C[C@@H](C)[C@@H](O)/C=C\C=C/C[C@@H](C)OC(=O)C[C@H]1OC(C)=O	28.3%	-7.1[24.8 µM]

Compound profiles, as listed above. Order of values: Sfp inh | Menin-MLL FL inh
`CC(C)=CCC/C(C)=C/CO/N=C1/C[C@@H](O)[C@@H](O)[C@@H]2[C@@H]3C(=O)N(C4CCCCC4)C(=O)[C@H]3CC[C@H]12` in the list: -6.3% | 3.3[11.7 µM]
`COC(=O)c1ccc(C(NC(=O)OCc2ccccc2)/C(=C/[C@@H](C)C(=O)Nc2ccccc2)c2cccnc2)cc1` (stereo partly specified) in the list: 25.5% | 0.9
`COC(=O)C1(CC(C)C)C=C2C(=C(C)C(=O)C2C)CN1` (stereo unspecified) in the list: 1.1% | ?
`COC(=O)[C@@]1(Cc2ccccc2-c2ccco2)C=C[C@H](C)[C@@H](c2ccccc2)N1C(=O)C(F)(F)F` in the list: ? | 1.8
`S=C(S)O[C@@H]1C[C@@H]2C[C@H]1[C@@H]1CCC[C@H]21` in the list: 11.9% | ?

Remaining list, next part
Structure	Sfp inh	Menin-MLL FL inh
NC(=O)[C@@H]1CSSCCC(=O)N[C@@H](CCCCN=C(N)N)C(=O)NCC(=O)N[C@@H](CC(=O)O)C(=O)N[C@@H](Cc2c[nH]c3ccccc23)C(=O)N2CCC[C@H]2C(=O)N1	19.6%	4.0
CC(/C=C/c1cccc(Oc2ccc(F)cc2)c1)N(O)C(N)=O (stereo unspecified)	-1.4%	5.5
O=P(O)(O)OC[C@H](O)CO	16.8%	1.8
CC(=O)OC1CC(OC(C)=O)[C@]2(C)C(CC(O)[C@]3(C)C2CC[C@@]2(C)C(c4ccoc4)OC(=O)C4O[C@]432)C1(C)C (stereo partly specified)	-6.6%	5.2
CN1CCc2nc(-c3ccccc3)c(-c3ccccc3)cc2C1	16.6%	0.0[11.7 µM]
CC(C)[C@@H](CC(=O)N[C@@H]1CCCC[C@H]1C(=O)N[C@H](CC(=O)N[C@@H](CCC(=O)O)CC(=O)O)Cc1ccccc1)NC(=O)C[C@H](Cc1c[nH]c2ccccc12)NC(=O)[C@@H]1CCCC[C@H]1N	-4.5%	-6.6
O=C1C(c2[nH]c3ccccc3c2O)=Nc2ccccc21	22.7%	-2.3
CCCCCN(CCCCC)C(=O)[C@H](CCC(=O)O)NC(=O)[C@H](Cc1ccc(OP(=O)(O)O)cc1)NC(C)=O	?	-2.5
CN(C)c1ccc2c(-c3ccccc3)c3ccc(=[N+](C)C)cc-3oc2c1	?	?
O=c1c2nc(Br)n([C@@H]3O[C@@H]4CO[P@@](O)(=S)O[C@H]4[C@H]3O)c2nc2[nH]c(-c3ccccc3)cn12	-0.6%	1.8
COC(=O)[C@@H]1C[C@@]2(O)[C@@H](O)[C@@H](O)[C@@H](O)C[C@H]2N1CC1CC1	30.6%	-1.9
C=CC1=C2C=C(C3CC3)N(CCCOC(C)C)C=C2C(=O)C(C)(OC(=O)c2ccco2)C1=O (stereo unspecified)	-26.1%	-6.7[11.7 µM]
C[C@@H](C(=O)Nc1ccc2ccccc2c1)[C@@H]1C[C@@]1(C)[C@@H](NC(=O)c1ccncc1Cl)c1ccccc1	6.9%	-0.5
CC#CC(=O)Nc1cc2c(Nc3ccc(F)c(Cl)c3)ncnc2cn1	-1.7%	?
C[C@@H](CN(C)C)CN1c2ccccc2CCc2ccccc21	16.3%	-4.9[24.8 µM]
CC(=O)Nc1ccc(NC(=S)NC(=O)c2ccc(C(C)(C)C)cc2)cc1	-6.7%	5.7
CC1(C)CCC[C@]2(C)C3CC(=O)O[C@@]3(C)CC[C@H]12 (stereo partly specified)	7.1%	-3.8
COc1ccccc1C1=Nn2c(nnc2-c2ccccc2O)SC1	-14.0%	2.6
C/C(=C\COc1c2ccoc2cc2oc(=O)ccc12)CCC(O)C(C)(C)O (stereo unspecified)	-3.0%	-1.8
CSc1nc(N)c2ncn([C@H]3O[C@H](COP(=O)(O)OP(=O)(O)OP(=O)(O)O)[C@@H](O)[C@@H]3O)c2n1	-6.9%	?

Structure	Sfp inh	Menin-MLL FL inh
COC(=O)[C@@H]1CC[C@H](C)[C@@H](c2ccc(C)cc2)N1C(=O)c1ccc(/C=N\OC[C@@H](O)COCc2ccco2)cc1	5.0%	1.3[11.7 µM]
CCOC(=O)N/N=C1/C[C@@H](O)[C@@H](O)[C@@H]2[C@@H]3C(=O)N(C(C)(C)C)C(=O)[C@H]3CC[C@@H]12	4.5%	5.5[11.7 µM]
C[C@H]1Cc2c(-c3ccccc3)nc3c(c2CO1)CN(C(=O)NCc1ccco1)CC3	-26.2%	-1.1[11.7 µM]
Cc1c2oc3c(C)ccc(C(=O)N[C@@H]4C(=O)N[C@@H](C(C)C)C(=O)N5CCC[C@@H]5C(=O)N(C)CC(=O)N(C)[C@@H](C(C)C)C(=O)O[C@H]4C)c3nc-2c(C(=O)N[C@@H]2C(=O)N[C@@H](C(C)C)C(=O)N3CCC[C@@H]3C(=O)N(C)CC(=O)N(C)[C@@H](C(C)C)C(=O)O[C@H]2C)c(N)c1=O	-9.3%	12.0
COC(=O)C/C=C\[C@@H](C)[C@@H](/C=N\O[C@@H](C)c1cn([C@H]2COC[C@H]2O)nn1)OC	15.4%	0.2[11.7 µM]
Cc1cc(N)c2cc(NC(=O)Nc3ccc4nc(C)cc(N)c4c3)ccc2n1	7.94µM*	-29.9
COc1cccc(C2=Nn3c(nnc3-c3ccc(OC)cc3OC)SC2)c1	-9.7%	-4.6
O=c1c(-c2ccc(O)cc2)coc2cc(O[C@@H]3O[C@H](CO)[C@@H](O)[C@H](O)[C@H]3O)cc(O)c12	11.5%	2.0
COc1ccc(-c2cnc(-c3cccnc3)o2)cc1	-6.5%	-0.9
COc1ccc(-c2nc3c(c4c2C[C@H](c2ccccc2)OC4)CN(S(=O)(=O)c2ccc(C)cc2)CC3)c(C)c1	-3.4%	-3.8[11.7 µM]
Cc1ccc2c(c1)C(=O)[C@@]1(O)CCN(c3ccccc3)C1=N2	-3.0%	?
CC(C)C[C@@H](CC(=O)N[C@H](CC(=O)N[C@@H]1CCNC[C@H]1C(=O)N[C@H](CC(=O)N[C@@H](CCC(=O)O)CC(=O)O)Cc1c[nH]c2ccccc12)C(C)C)NC(=O)[C@@H]1CCCC[C@H]1N	-0.9%	-3.4
CCCCCC(=O)/C=C/[C@H]1[C@H](O)CC(=O)[C@@H]1C/C=C\CCCC(=O)O	0.2%	16.1
CCOc1ccccc1-c1ccc(C(=O)O)o1	-1.9%	-0.5[138 µM]

Assay outcomes (PubChem BioAssay)
